Bioassay records (PubChem)
Rango-impB inh = prevents formation of the Rango-importin beta complex; Q14974; Rango CFP/YFP FRET sensor + importin beta, 45 min; Potency, µM (highest dose often 92.2 µM), for the others: top-dose inhibition of complex formation; actives 0.031% (n = 340,000); AID 540263; active = rising FRET ratio curve, often small or poorly fitted; inconclusive = mostly compound fluorescence or quenching in the first reads; inactive = flat curves in all reads;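 note: potency is the fitted concentration of half-maximal effect; 0% = DMSO wells and 100% = buffer wells lacking importin beta; nearly all actives have a fitted effect of over 15% in size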
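Inhibition scored from the CFP 486 nm/YFP 530 nm FRET ratio 45 min after adding 0.125 microM importin beta to 50 nM Rango biosensor preincubated 5 min with compound (room temperature, PBS with DTT, Tween-20, BSA). No-importin wells as positive control.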
GLA inh pH 4.5 = inhibitors of human alpha-galactosidase A at pH 4.5; activity change, negative = inhibition, % at 105 µM; 230,000 tested, under 10 active; purified enzyme, 4-MU-alpha-Gal fluorescence, pH 4.5; AID 1467; inconclusive = small, poorly fitted or top-dose-only inhibition, or a rising curve; inactive = flat fitted curve, though single readings scatter; no compound was filed as active;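 note: 0% = full activity with enzyme and -100% = basal without enzyme; dose as in the result columns while the protocol names 77 µM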
Target sequence (P06280 whole entry, looked up): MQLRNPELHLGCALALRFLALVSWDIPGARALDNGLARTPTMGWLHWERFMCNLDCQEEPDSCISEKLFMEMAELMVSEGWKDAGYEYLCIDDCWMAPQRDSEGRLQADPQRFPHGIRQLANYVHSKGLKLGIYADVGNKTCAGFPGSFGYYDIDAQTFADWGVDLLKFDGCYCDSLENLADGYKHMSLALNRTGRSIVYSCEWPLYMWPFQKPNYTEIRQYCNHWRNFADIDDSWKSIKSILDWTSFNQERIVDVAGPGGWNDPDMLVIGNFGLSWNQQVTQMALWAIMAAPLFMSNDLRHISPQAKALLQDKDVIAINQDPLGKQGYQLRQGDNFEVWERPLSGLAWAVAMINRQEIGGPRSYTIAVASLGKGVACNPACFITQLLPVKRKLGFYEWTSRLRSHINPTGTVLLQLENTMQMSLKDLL
miR-21 FLuc = raises the signal of a miR-21 reporter | HeLa miR-21 FLuc reporter, luciferase, 48 h | Potency, µM (titrated, usually from 38.3 µM), without a hit: top-dose reporter change, positive = more light | 340,000 tested, under 10 active | AID 2288; active = well fitted rising curve with a large enough effect; inconclusive = small, poorly fitted or top-dose-only effect; inactive = no such curve, though single readings can be large or run the other way;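 note: % of control where 0% means no effect; miR-21 action dims this reporter so a rising signal means less miR-21 action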
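HeLa miR-21-FLuc reporter line, endogenous miR-21; 2000 cells/well in DMEM/10% FBS; compound titration up to ~40uM final, 48 h, 37 degree Celsius; luciferase detection reagent, 15 min lysis, CCD luminescence.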
Rango dissoc inh = inhibition of RanGTP-driven Rango-importin beta dissociation; actives 0.071% (n = 340,000); O95149+P62826; Potency, µM (top dose mostly 46.1 µM), inactives show top-dose activity change, negative = inhibition; Biochemical FRET Rango-importin beta, RanGTP-induced dissociation; AID 540253; active means falling FRET ratio curve, often poorly fitted, with flat reads before Ran was added; inconclusive means other falling curves, or compound fluorescence or quenching; inactive means flat or rising ratio curve;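 note: potency is the fitted concentration of half-maximal effect; % of control where 0% means no effect; nearly all actives have a fitted effect of over 45% in size; -100% = wells without RanGTP and RCC1; the record marks most hits as doubtful in a second field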
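Quantitative HTS using a FRET biosensor: 0.1 uM Rango, 0.25 uM importin beta, 0.6 uM Ran, 2 mM GTP, 0.2 uM RCC1 final, PBS with DTT, Tween-20 and BSA. Post-read taken 45 min after Ran addition.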
Numbers without * were called inactive; ? = inconclusive; nt = not tested or not shown; & = joins results of further samples. An excerpt; rates above refer to the full screens.

Rango-impB inh,GLA inh pH 4.5,miR-21 FLuc,Rango dissoc inh,Molecule
-1.9%,-1,?,0%,Oc1c(CN2CCCCC2)cc(COCc2ccccc2)c2cccnc12
-0.8%,12,-1%,2%,CCC(=O)NC(=S)Nc1cccc(Cl)c1N1CCCC1
-0.8%,nt,0%,19%,COc1ccc(-n2c(=S)[nH]c3cc(C(=O)NCc4cccnc4)ccc3c2=O)cc1
0.8%,nt,-7%,-6%,C[C@H](NC(=O)[C@@H]1Cc2ccccc2CN1)C(=O)NC[C@H]1CC[C@H](C(=O)O)CC1
-2.1%,5,-7%,12%,O=C(NCCCN1CCOCC1)c1ccccc1
-1.9%,20,0%,-6%,COC(=O)c1cc(OC)c(OC)cc1NC(=O)c1cc(OC)cc(OC)c1
?,12,-1%,?,Cc1coc(NC(=O)CSc2nc(-c3ccc(Cl)cc3)cc(C(F)(F)F)c2C#N)n1
-0.2%,3,0%,0%,Cn1c(CSCc2ccccc2)nnc1SCC(=O)Nc1ccc(C(=O)O)cc1
-4.0%,3,-14%,-20%,O=C1COc2ccc(C(=O)COC(=O)Cn3cnc4ccccc43)cc2N1
-3.6%,-4,-6%,4%,N#CCSc1nnc(CNc2ccc(F)cc2)o1
-5.3%,4,-10%,-4%,CCN=C(Nc1ccc(Cl)cc1)c1cccnc1
1.3%,nt,nt,-10%,CC(N=C1NS(=O)(=O)c2ccccc21)C(=O)Nc1ccc(F)cc1Cl (configuration not stated)
4.2%,nt,-45%,2%,O=C(NC1CCCC1)c1cc(-c2ccc(Cl)c(Cl)c2)on1
?,0,-30%,-10%,CCOc1ccc(C(=O)/C=C/Nc2ccc(S(=O)(=O)Nc3onc(C)c3C)cc2)cc1
4.0%,nt,-10%,0%,Cn1ncc(Br)c1NC(=O)c1cc(Cl)cc(Cl)c1
-0.3%,0,-6%,17%,O=C(O)CCC(=O)NNC(=O)c1ccc(Br)cc1
-1.0%,10,-4%,0%,O=S(=O)(c1ccc(Cl)c(F)c1)N1CCC(c2nc(-c3ccncc3)no2)CC1
0.4%,nt,nt,-19%,COc1ccccc1[C@@]1(C)ON(c2ccccc2C(F)(F)F)C1=O
-3.4%,2,0%,16%,Cc1ccc(OCC(=O)N2CCOCC2)c([N+](=O)[O-])n1
4.2%,-1,-22%,-4%,CC(=O)c1c(CC(=O)O)[nH]n(-c2nc3ccccc3s2)c1=O

Rango-impB inh,GLA inh pH 4.5,miR-21 FLuc,Rango dissoc inh,Molecule
-1.4%,nt,-3%,6%,COCC1CCN(C(=O)c2cc(COc3ccc(-n4cncn4)cc3)on2)C1 (configuration not stated)
-2.5%,4,-13%,0%,CCOc1cc(S(=O)(=O)NCCc2ccc(OC)c(OC)c2)c(OCC)cc1-n1cnnn1
?,1,-3%,1%,Cc1ccccc1CN(c1ccc(C(=O)NCC2CCCO2)cc1)S(C)(=O)=O (configuration not stated)
2.7%,nt,nt,-6%,Cc1ccnc(NC(=O)CCCNC(=O)c2ccc(Cl)cc2)c1
-4.0%,?,0%,16%,CC(=O)c1cccc(NC(=O)C(C)OC(=O)CNC(=O)c2ccc(C)s2)c1 (configuration not stated)
0.3%,nt,nt,2%,CCN(C(=O)CSc1nncn1-c1ccccc1)C1CCS(=O)(=O)C1 (configuration not stated)
-0.3%,5,-12%,-21%,COc1ccc(N(CCCN2C(=O)c3cccc4cccc(c34)C2=O)C(=O)c2ccncc2)cc1
-4.0%,2,-13%,?,COc1cc(N)c(Cc2nccc3cc(OC)c(OC)cc23)cc1OC
2.0%,nt,nt,5%,COc1ccc(COC(=O)CNC(=O)C2CCCCC2)cc1F
0.1%,8,-4%,6%,CC1(C)NC(=O)N(CC(O)COc2cccc(F)c2)C1=O (configuration not stated)
0.0%,-15,0%,-2%,Cc1nc(NCc2ccccn2)c2ccccc2n1
3.3%,4,-34%,4%,O=C(Nc1ccccc1)Nc1nc2ccccc2s1
0.1%,6,0%,1%,COc1ccc(F)cc1C(=O)C1CCCN(Cc2ccc(Sc3nncn3C)o2)C1 (configuration not stated)
5.2%,-14,-1%,22%,Cc1ccccc1Cn1ccc(NC(=O)c2nn(C)cc2[N+](=O)[O-])n1
1.9%,1,-50%,19%,CN(C)c1ccc(/C=N/N2C(=O)c3ccccc3C2=O)cc1
2.4%,nt,nt,-1%,CCOc1ncccc1C(=O)Nc1cc(S(=O)(=O)N2CCCCCC2)ccc1OC
?,-4,1%,8%,COc1ccc(CN2C(=O)CCC2(C)C(=O)NCc2cccnc2)c(OC)c1 (configuration not stated)
1.2%,-12,-12%,-8%,Cc1ccnc(SCc2cc(=O)c(OC(=O)c3ccco3)co2)n1
?,-7,19%,3%,N#Cc1c(Cl)nsc1NC(=O)c1ccccc1
-5.7%,2,0%,19%,CC(C)=C1C2CCC1C1C(=O)N(c3nccs3)C(=O)C21 (configuration not stated)

Profiles, quoted from the list. Screens in order: Rango-impB inh, GLA inh pH 4.5, miR-21 FLuc, Rango dissoc inh
Record of Cc1ccccc1Cn1ccc(NC(=O)c2nn(C)cc2[N+](=O)[O-])n1 = 5.2%, -14, -1%, 22%
Record of CC(C)=C1C2CCC1C1C(=O)N(c3nccs3)C(=O)C21 (configuration not stated) = -5.7%, 2, 0%, 19%
Record of Cc1ccnc(SCc2cc(=O)c(OC(=O)c3ccco3)co2)n1 = 1.2%, -12, -12%, -8%
Record of COc1cc(N)c(Cc2nccc3cc(OC)c(OC)cc23)cc1OC = -4.0%, 2, -13%, ?
Record of CCOc1ncccc1C(=O)Nc1cc(S(=O)(=O)N2CCCCCC2)ccc1OC = 2.4%, nt, nt, -1%

(further entries)
Rango-impB inh,GLA inh pH 4.5,miR-21 FLuc,Rango dissoc inh,Molecule
-3.2%,5,-6%,10%,CC(C)OC(=O)CSc1nnc(-c2cnccn2)n1-c1ccccc1
?,nt,nt,-5%,CC(Oc1cccnc1[N+](=O)[O-])C(=O)Nc1ccc(F)cc1 (configuration not stated)
3.7%,nt,nt,-1%,COc1cccc(CN(C)C(=O)c2ccccc2SCC(=O)N2CCCC2)c1
3.2%,1,-4%,2%,COc1ccc(-n2c(Cn3nc(C(F)(F)F)cc3C)n[nH]c2=S)cc1
3.9%,2,0%,-12%,N=c1n(Cc2ccccc2)c2ccccc2n1Cc1ccccc1
-3.9%,nt,-8%,16%,O=C(NNc1ccccc1[N+](=O)[O-])Nc1ccc(F)cc1F
-3.4%,nt,0%,-5%,COc1ccccc1N(CC(=O)NC1CCCC1)C(=O)CNC(=O)c1cccs1
-1.3%,7,1%,9%,CN(C)CCCOC(=O)Cc1ccc(Cl)cc1
-2.7%,-2,17%,2%,O=C(Nc1ccc(Cl)cc1)Nc1ccc(Oc2cccnc2)nc1
6.2%,-18,-2%,14%,C=CCn1c(SCC(=O)c2ccc(OC)cc2)nnc1-c1ccc2c(c1)OCO2
1.7%,-1,-1%,29%,O=C(Nc1cccc(C(=O)O)c1)/C(=C\c1ccc2c(c1)OCO2)NC(=O)c1ccco1
8.8%,nt,nt,-19%,COc1ccc(S(=O)(=O)N2CCN(C(=O)c3cc(C)on3)CC2)cc1
2.6%,nt,6%,11%,CC1CC(C)CN(S(=O)(=O)c2ccc3c(c2)CC(C)N3C(=O)C2CCC2)C1 (configuration not stated)
-0.3%,0,-4%,1%,Cn1cc(C(=O)N/N=C/c2ccc3c(c2)OCO3)c2ccccc21
-1.5%,nt,0%,5%,Cc1ncc([N+](=O)[O-])n1CC(=O)Nc1ccc(F)c(Cl)c1
-2.0%,7,-6%,-4%,CC(C)(C)NC(=O)C(c1ccccc1F)N(Cc1ccco1)C(=O)c1csnn1 (configuration not stated)
0.5%,nt,1%,2%,O=S(=O)(NNc1cccc(Cl)n1)c1ccc(Cl)cc1
0.1%,-21,18%,0%,Oc1[nH]c2ccccc2c1N=NC(=S)N1CCOCC1
-0.5%,-5,0%,2%,CCn1c(SCC(=O)OC)nc2sc3c(c2c1=O)CC(C)(C)OC3
-0.1%,-11,7%,2%,Cc1ccc2oc(=O)c3cnn(CC(=O)Nc4ccccc4N4CCN(C)CC4)c3c2c1

Rango-impB inh,GLA inh pH 4.5,miR-21 FLuc,Rango dissoc inh,Molecule
0.1%,0,-4%,10%,CCn1cc([N+](=O)[O-])c(C(=O)Nc2nc(-c3ccc(C)c(C)c3)c(C)s2)n1
3.5%,nt,8%&10%,1%,Cc1cccc(NC(=O)c2cc(S(=O)(=O)N3CCC4(CC3)OCCO4)ccc2F)c1
0.7%,0,4%,3%,Cc1cccc(C)c1NC(=O)CN(C)C(C)C(=O)Nc1ccccc1-c1ccccc1 (configuration not stated)
-1.0%,nt,-5%,9%,COc1cc(C(=O)NCCc2ncccc2C)ccc1OC1CCN(C(C)=O)CC1
-3.2%,-3,3%,-14%,COc1ccc(N2C(=O)[C@@H]3C(c4cccnc4)=NO[C@@H]3C2=O)cc1
nt,7,-4%,nt,COCCCn1c2nc3ccccc3nc2c2c(=O)n(-c3ccccc3OC)c(C)nc21
-1.4%,-2,-1%,-1%,Cc1nc2c(c(-c3ccccc3)c1C#N)C(=O)c1ccccc1-2
0.0%,nt,-7%,-2%,CC1Cc2cc(/C(O)=C3/C(=O)C(=O)N(CCCN4CCOCC4)C3c3ccc(C(C)C)cc3)ccc2O1 (configuration not stated)
0.6%,-6,7%,-10%,CCOC(=O)C1(Cc2cccc(OC)c2)CCN(Cc2cccc3c2OCO3)CC1
2.0%,nt,nt,1%,Cc1ccc2cccc(OCC(=O)Nc3cccc(S(=O)(=O)N4CCCC4)c3)c2n1
-0.2%,nt,nt,-4%,CCOC(=O)C1=CC[C@@H](c2cccc(C)c2)N(S(=O)(=O)c2ccc(C)cc2)[C@H]1C(=O)OCC
-0.4%,-8,-20%,-3%,Cc1ccc(NC(=O)CN(C)S(=O)(=O)c2cccs2)cc1F
-0.5%&2.9%,-4,-5%,6%&1%,CCOC(=O)C1=C(C)NC(SCC(=O)OC)=C(C#N)C1c1ccc(C(=O)OC)cc1 (configuration not stated)
-1.5%,nt,-73%,3%,Cc1ccc2cc(NC(=O)c3ccccc3C)ccc2n1
5.1%,nt,6%,4%,COc1ccccc1C(=O)N1C(CC(=O)Nc2ccccc2C)C(=O)NC2CCCCC21 (configuration not stated)
-1.6%,-7,-3%,3%,CCOC(=O)/C(C#N)=c1/s/c(=C2\C=Cc3ccccc3N2CC)c(=O)n1CC
0.2%,0,-17%,0%,O=C(Nc1ccccc1)N1CCCN(Cc2c(F)cccc2Cl)CC1
-0.5%,9,-3%,-26%,O=C(NCCc1ccccn1)/C(=C/c1ccco1)NC(=O)c1ccccc1
-0.9%,0,-1%,-10%,Cc1ccc(S(=O)(=O)N(C)C)cc1NC(=O)CN1CCN(Cc2ccccc2)CC1
-0.3%,nt,nt,15%,CCN(Cc1ccccc1)C(=O)c1cccc(S(=O)(=O)N2CCN(Cc3ccccc3)CC2)c1

Rango-impB inh,GLA inh pH 4.5,miR-21 FLuc,Rango dissoc inh,Molecule
-2.2%,2,-6%,-8%,CCCOc1ccccc1C(=O)N(Cc1ccco1)C1CCS(=O)(=O)C1 (configuration not stated)
0.0%,9,-7%,1%,COc1cc2cc(C(c3nnnn3C(C)(C)C)N3CCC(C)CC3)c(=O)[nH]c2cc1OC (configuration not stated)
-0.5%,-7,-60%,8%,C/C(=N\NC(=O)c1ccccc1)c1cccc(Br)c1
-3.1%,-2,-1%,-16%,Cc1ccc(-n2nnnc2SC(C)C(N)=O)c(C)c1 (configuration not stated)
-1.0%,nt,9%,-16%,Cc1ccc(S(=O)(=O)N(C)c2ccc(OCc3cccc(C)c3)cc2)cc1
-4.6%,-14,-11%,-4%,Cc1ccc(SC[C@H](c2ccccc2)N2CCN(CCc3ccccc3)CCC2=O)cc1
0.9%,-1,-7%,-10%,CC(C)Cn1c(SCC(=O)N2CCc3ccccc3C2)nc2cc(Cl)ccc2c1=O
4.7%,6,-4%,22%,CN1CCC(=C(c2ccc(Cl)cc2)c2ccccn2)CC1
0.8%,-2,2%,2%,Cn1c2ccccc2c(=O)c2c(=O)n(-c3ccccc3)c(C3CCCCC3)nc21
8.3%,3,-32%,10%,COc1cc(C2=NOC(C(=O)Nc3ccc(C(C)=O)cc3)C2)cc(OC)c1OC (configuration not stated)
3.7%,4,-37%,13%,Nc1nc(N)c2sc3nc4c(cc3c2n1)CCC4
